Screens deposited in PubChem BioAssay by National Center for Advancing Translational Sciences (NCATS).
GLA inh pH 4.5 = alpha-galactosidase A (human) inhibition, pH 4.5 | P06280 | activity change, negative = inhibition, % at 105 µM | 230,000 tested, under 10 active | purified enzyme, 4-MU-alpha-Gal fluorescence, pH 4.5; inconclusive = small, poorly fitted or top-dose-only inhibition, or a rising curve; inactive = flat fitted curve, though single readings scatter; no compound was filed as active;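 note: 0% = full activity with enzyme and -100% = basal without enzyme; dose as in the result columns while the protocol names 77 µM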
Rango-impB inh = inhibitors of Rango-importin beta complex formation. Rango CFP/YFP FRET sensor + importin beta, 45 min. 340,000 tested, 0.031% active. Potency, µM (highest dose often 92.2 µM), without a hit: top-dose inhibition of complex formation. Q14974. AID 540263; active = rising FRET ratio curve, often small or poorly fitted; inconclusive = mostly compound fluorescence or quenching in the first reads; inactive = flat curves in all reads;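 note: potency is the fitted concentration of half-maximal effect; 0% = DMSO wells and 100% = buffer wells lacking importin beta; nearly all actives have a fitted effect of over 15% in size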
Target sequence (Q14974 whole entry, looked up): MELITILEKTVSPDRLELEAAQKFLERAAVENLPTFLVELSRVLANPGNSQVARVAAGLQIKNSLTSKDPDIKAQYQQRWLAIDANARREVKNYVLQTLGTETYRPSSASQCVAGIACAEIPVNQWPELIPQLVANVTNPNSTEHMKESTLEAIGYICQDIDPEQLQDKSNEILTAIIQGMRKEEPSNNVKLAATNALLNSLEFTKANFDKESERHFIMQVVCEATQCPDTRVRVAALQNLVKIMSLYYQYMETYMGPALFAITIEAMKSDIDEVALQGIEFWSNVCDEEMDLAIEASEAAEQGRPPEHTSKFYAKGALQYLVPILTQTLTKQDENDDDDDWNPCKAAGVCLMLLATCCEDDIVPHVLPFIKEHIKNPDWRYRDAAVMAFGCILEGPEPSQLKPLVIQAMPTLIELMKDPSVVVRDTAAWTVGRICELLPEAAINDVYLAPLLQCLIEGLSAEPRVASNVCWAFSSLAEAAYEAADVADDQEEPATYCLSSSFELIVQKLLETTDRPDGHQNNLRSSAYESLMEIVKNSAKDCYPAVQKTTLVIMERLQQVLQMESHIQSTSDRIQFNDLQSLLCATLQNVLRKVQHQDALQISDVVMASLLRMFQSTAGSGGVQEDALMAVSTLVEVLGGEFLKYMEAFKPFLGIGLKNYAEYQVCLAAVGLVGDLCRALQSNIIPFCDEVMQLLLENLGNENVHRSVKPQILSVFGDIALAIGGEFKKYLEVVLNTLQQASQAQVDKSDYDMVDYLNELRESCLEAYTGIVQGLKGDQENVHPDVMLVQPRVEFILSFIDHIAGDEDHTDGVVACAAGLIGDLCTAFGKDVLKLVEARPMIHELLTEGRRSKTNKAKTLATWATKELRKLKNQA
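FRET biosensor Rango (snurportin 1 IBB between N-terminal EYFP and C-terminal Cerulean), 50 nM in PBS/1 mM DTT/0.02% Tween-20/0.1% BSA, preincubated 5 min RT with compound; 0.125 microM importin beta added, 45 min RT, CFP/YFP FRET ratio read.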
Rango dissoc inh = inhibition of RanGTP-driven Rango-importin beta dissociation; Biochemical FRET Rango-importin beta, RanGTP-induced dissociation; AID 540253; 340,000 tested, 0.071% active; O95149+P62826; Potency, µM (highest dose often 46.1 µM), inactives show top-dose activity change, negative = inhibition; active means falling FRET ratio curve, often poorly fitted, with flat reads before Ran was added; inconclusive means other falling curves, or compound fluorescence or quenching; inactive means flat or rising ratio curve;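 note: potency is the fitted concentration of half-maximal effect; % of control where 0% means no effect; nearly all actives have a fitted effect of over 45% in size; -100% = wells without RanGTP and RCC1; the record marks most hits as doubtful in a second field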
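Rango (0.1 uM)–importin beta (0.25 uM) complex; RanGTP-RCC1 trigger; 45 min RT; CFP/YFP FRET read.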
miR-21 FLuc = miR-21 reporter, rising signal; HeLa miR-21 FLuc reporter, luciferase, 48 h; AID 2288; 340,000 tested, under 10 active; Potency, µM (series often up to 38.3 µM), without a hit: at the top dose reporter change, positive = more light; active = well fitted rising curve with a large enough effect; inconclusive = small, poorly fitted or top-dose-only effect; inactive = no such curve, though single readings can be large or run the other way;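 note: % of control where 0% means no effect; miR-21 action dims this reporter so a rising signal means less miR-21 action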
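Compounds were titrated across several concentrations (up to approximately 40 uM) and incubated 48 hours with HeLa miR-21-FLuc reporter cells (miR-21 target sequence downstream of FLuc, endogenous miR-21). Readout was firefly luciferase luminescence after lytic detection reagent.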
* marks the source's active call; other numbers are inactive results; u = inconclusive; x = not tested or not shown; & = joins results of further samples. These rows are one share of the data (hit frequency here may not be typical).

Second line of a record – GLA inh pH 4.5	Rango-impB inh	Rango dissoc inh	miR-21 FLuc
- CCn1c2ccccc2c2cc(NC(=O)COc3ccc(OC)cc3)ccc21
    -23.7	-5.5%	7.5%	-0.1%
- FC(F)Oc1ccc(-n2cc(-c3ccc(Cl)cc3)[n+]3c2CCCCC3)cc1
    -0.4	-2.5%	1.9%	17.8%
- c1ccc2[nH]c(NCCCN3CCOCC3)nc2c1
    1.5	u	8.7%	-12.5%
- CCc1ccc(CN(C)C(=O)C2CCC(=O)N(Cc3cccc(OC)c3)C2)nc1 (configuration not stated)
    x	3.9%	7.6%	-0.3%
- Cc1ccc(-c2[nH]ncc2/C=N/n2c(C)nc3ccccc3c2=O)cc1
    -2.4	0.1%	-4.0%	1.1%
- Oc1ccc2ccccc2c1C=Nc1cc(C(F)(F)F)ccc1N1CCCC1
    -1.0	-2.4%	-18.3%	-4.8%
- CCOc1ccc(NC(=O)c2ccc(NS(=O)(=O)c3cccs3)cc2)cc1
    x	-0.2%	-6.2%	-7.5%
- Cc1ccc(NC(=O)C(C)SCc2nc3sc(C)c(C)c3c(=O)[nH]2)nc1 (configuration not stated)
    x	u	u	x
- N#Cc1ccc(NC(=O)Nc2ccc(Oc3ccc(NC(=O)Nc4ccc(C#N)cc4)cc3)cc2)cc1
    -1.0	3.8%	-15.3%	u
- Nn1c(C2COc3ccccc3O2)n[nH]c1=S (configuration not stated)
    -8.0	-2.2%	-26.1%	-22.2%
- CCCCN1CC[C@H]2C=CC[C@@H](C(=O)N3CCN(c4ccccc4)CC3)[C@H]2C1=O
    x	0.5%	0.9%	x
- Cc1n[nH]c(=O)nc1N1CCN(c2ccccc2)CC1
    0.7	-3.7%	-15.4%	-8.6%
- Cc1nc2c(Br)cc(Br)cc2cc1O
    -7.3	-1.3%	-9.3%	6.0%
- CCCNC(=O)CCCN1C(=O)c2ccccc2Sc2ncccc21
    x	-0.7%	3.3%	0.7%
- CCC(C(=O)NC1CCCC1)N(C(=O)Cn1nnc(-c2ccc(C)o2)n1)c1ccc(F)cc1 (configuration not stated)
    x	-0.6%	-1.7%	1.1%
- Cc1cnc(C(=O)OCC(=O)Nc2cc(S(=O)(=O)N3CCCCC3)ccc2Cl)cn1
    -5.0	1.8%	-9.1%	-1.7%
- CCOC(=O)c1sc(NC(=O)c2cccc(S(=O)(=O)N3CCN(C)CC3)c2)cc1C
    -11.9	-0.7%	-1.8%	-5.1%
- Cc1cn(CC(=O)NCC2CCCO2)c(=O)[nH]c1=O (configuration not stated)
    x	-1.8%	-0.3%	x
- O=C(O)c1cc([N+](=O)[O-])c(NCCC2=CCCCC2)c([N+](=O)[O-])c1
    1.6	2.4%	-2.1%	-8.7%
- CC(=O)N1c2ccc(S(=O)(=O)NCC3CCC(C(=O)NC4CCC(C)CC4)CC3)cc2CC1C (configuration not stated)
    x	3.7%	8.3%	13.8%

Going on with the list.
Second line of a record – GLA inh pH 4.5	Rango-impB inh	Rango dissoc inh	miR-21 FLuc
- CN(CCc1ccccn1)C(=O)c1cc(COc2ccc(F)cc2F)on1
    x	-1.6%	u	-7.5%
- Cc1ccc(-c2csc3ncn(CC(=O)NCC(c4ccco4)N4CCCC4)c(=O)c23)cc1 (configuration not stated)
    x	-0.9%	2.2%	x
- O=C(Nc1ccccc1-c1ccccc1NC(=O)c1ccco1)c1ccco1
    -6.4	7.2%	3.0%	-4.3%
- CC(=O)Nc1ccc(C(=O)OCC(=O)N2CCN(C(=O)c3ccco3)CC2)cc1
    x	-2.6%	46.3%	x
- O=c1oc2ccccc2c(Nc2cccc3ccccc23)c1[N+](=O)[O-]
    2.4	-0.7%	7.8%	-4.5%
- CCOC(=O)c1cnn(-c2ccc([N+](=O)[O-])cc2)c1N
    -13.9	2.7%	-1.1%	-30.7%
- C=CCNC(=O)c1ccc2c(=O)n(Cc3ccccc3OC)c(=S)[nH]c2c1
    x	-2.2%	-10.0%	-2.7%
- CCCOc1ccc(/C=N/Nc2cccc([N+](=O)[O-])c2)c(O)c1
    11.2	1.0%	10.2%	6.0%
- Cc1ccccc1NCCC(=O)Nc1ccc(Cl)cc1
    x	-2.6%	8.3%	-37.7%
- CCN1CCN(C(=O)CS(=O)(=O)Cc2nc(-c3ccccc3C)oc2C)CC1
    x	-5.8%	-12.1%	-6.2%
- Cc1cccc(-n2nnc(C(=O)NCc3ccccc3Cl)c2N)c1
    -5.5	4.5%	9.4%	-20.7%
- COc1ccc(NC(=O)CCN2C(=O)C3C4CCC(C4)C3C2=O)cc1 (configuration not stated)
    -9.6	3.1%	-15.2%	-7.1%
- O=C(COC(=O)/C=C/c1ccc(Cl)cc1Cl)NCc1ccco1
    13.2	-0.3%	1.7%	-0.9%
- COC(=O)C1=C(C)NC(C)=C(C(=O)OC)C1c1ccc(OC(=O)c2oc3ccccc3c2C)c(OC)c1
    6.8	-2.2%	-0.2%	-22.6%
- COc1ccc(Cc2nc3ccccc3[nH]c2=O)cc1
    x	2.4%	15.8%	-10.5%&-15.8%
- CC(=O)Cc1nsc(NC(=O)c2ccc(COc3ccccc3C)o2)n1
    x	-0.9%	0.3%	-4.0%
- N#Cc1sc2nc(-c3cccs3)cc(-c3ccc(Cl)cc3)c2c1N
    -3.4	u	u	-9.6%
- Cc1cccc(S(=O)(=O)Nc2ccc(-n3c(C)nc4ccccc4c3=O)cc2)c1
    x	13.0%	0.0%	x
- Cc1ccc2[nH]c(=O)c(CN(Cc3cccs3)C(=S)NCc3ccco3)cc2c1
    -11.0	-0.2%	4.8%	1.6%
- COc1ccc(NC(=S)N2CCC(C(=O)N3CCCCCC3)CC2)cc1
    -4.9	-0.9%	-9.7%	-5.5%

Overlap with the part before: 2 entries, followed by the next part.
Second line of a record – GLA inh pH 4.5	Rango-impB inh	Rango dissoc inh	miR-21 FLuc
- Cc1ccc2[nH]c(=O)c(CN(Cc3cccs3)C(=S)NCc3ccco3)cc2c1
    -11.0	-0.2%	4.8%	1.6%
- COc1ccc(NC(=S)N2CCC(C(=O)N3CCCCCC3)CC2)cc1
    -4.9	-0.9%	-9.7%	-5.5%
- COC(=O)C1CCN(S(=O)(=O)Cc2ccccc2)CC1
    2.8	u	-29.1%	-3.5%
- CCc1ccccc1C1C(=O)c2ccccc2C1=O
    x	3.9%	13.3%	x
- Cc1ccc2cccc(Oc3ncnc4scc(-c5ccc(Cl)cc5)c34)c2n1
    -2.8	2.8%	0.7%	0.6%
- O=C(CN1C(=O)C2C3C=CC(C3)C2C1=O)Nc1cccc(S(=O)(=O)N2CCCC2)c1 (configuration not stated)
    -3.1	1.5%	-9.2%	-6.0%
- O=S(=O)(Nc1cc(Cl)cc(Cl)c1)N1CCOCC1
    x	-0.2%	13.0%	-5.2%
- Cc1ccccc1NC(=O)Cc1nnc(SCC(=O)N2CCN(c3ccccc3)CC2)n1C
    4.5	-5.9%	-11.5%	-6.1%
- COc1ccc(OC)c2[nH]c(=O)c(CCNC(=O)c3ccc(S(=O)(=O)N4CCCC4)cc3)cc12
    -26.7	-3.7%	5.5%	-2.2%
- Cc1cccnc1NC(=O)c1ccc(COc2ccccc2)o1
    x	5.5%	-16.4%	-7.9%
- CCOC(=O)Cn1c(=O)oc2cc(S(=O)(=O)Nc3ccc(F)cc3)ccc21
    -3.3	0.2%	12.2%	-1.5%
- O=C(NCCCN1CCOCC1)C(=O)NCC1CCCO1 (configuration not stated)
    1.9	1.5%	14.3%	-6.1%
- O=c1cc(CSc2nnc(-c3cccnc3)n2-c2ccccc2F)nc2sccn12
    -9.0	-3.5%	-7.1%	-4.2%
- Cc1cc(C(=O)NNC(=O)CCCOc2ccccc2)c(C)o1
    x	2.1%	-5.4%	x
- O=C(COC(=O)c1ccc(Cl)nc1)NCc1cccs1
    10.8	-0.9%	-3.8%	2.2%
- Cc1oc(-c2ccc(Cl)cc2)cc1C(=O)/C(C#N)=C/Nc1ccccc1
    -11.5	-3.1%	-5.1%	-8.7%
- Cc1cc2c(n1-c1ccc(Cl)cc1)CC(C)(C)CC2=O
    6.7	1.9%	-7.6%	-1.3%
- Cc1cc(NC(=O)c2sc3ccccc3c2O)no1
    x	u	u	-39.4%
- COC(=O)Cn1c(O)c(N=NC(=O)c2ccc3c(c2)OCO3)c2ccccc21
    4.3	1.2%	3.2%	-4.9%
- Cc1ccc(/C=N/NC(=O)CN2CCN(Cc3ccccc3)CC2)o1
    0.9	-0.8%	-5.8%	1.2%
- Cc1ccc(OCc2nnc(SCc3cc(=O)[nH]c4ccccc34)n2-c2ccccc2)cc1
    -5.6	0.1%	-11.8%	12.6%
- COc1ccc(C(=O)c2c3ccccc3[n+]([O-])n2CCC(N)=O)cc1
    x	2.7%	8.5%	x

Carrying on:
Second line of a record – GLA inh pH 4.5	Rango-impB inh	Rango dissoc inh	miR-21 FLuc
- Cc1ccc(P(=Nc2ccccc2)(N2CCOCC2)N2CCOCC2)o1
    6.1	-2.8%	4.1%	-12.7%
- O=C(Nc1ccnn1C1CCN(Cc2ccc(Cl)cc2)CC1)C1CCCC1
    x	0.0%	-8.4%	5.1%
- CC(C)c1cccc(C(C)C)c1NC(=O)COC(=O)[C@H](C)NC(N)=O
    1.6	1.4%	-10.9%	3.5%
- CC1CCN(c2ccc(C(=O)NCc3cccs3)cn2)CC1
    -10.6	u	-13.1%	-49.6%
- Cc1ccc(OCc2ccc(C(=O)Nc3ccc(S(N)(=O)=O)cc3)o2)cc1
    -4.5	5.0%	-11.5%	-25.0%
- COC(=O)c1oc2ccc(Br)cc2c1-n1cccc1
    -12.9	3.4%	-12.6%	0.2%
- CC(Cc1ccccc1)C(=O)Nc1ccc(Br)cc1 (configuration not stated)
    x	-3.2%	-20.3%	-22.8%
- O=C1c2ccc(-c3nc4ccccc4o3)cc2C(=O)N1Cc1ccccc1
    x	-1.1%	-2.5%	x
- Fc1ccc(N/N=C2/CC(c3ccccc3)Oc3ccccc32)c(F)c1 (configuration not stated)
    -6.8	-1.7%	9.0%	-8.8%
- CCN1C[C@@H]2[C@@H]3C(=O)N(Cc4ccccc4)C(=O)[C@@H]3[C@](Cc3ccccc3)(C1=O)N2C(=O)c1ccc(C)cc1
    x	-0.6%	-5.8%	x
- O=C(Nc1cc(Cl)ccc1Cl)C1CCCO1 (configuration not stated)
    x	-0.5%	-8.2%	-3.2%
- O=C(CN(C(=O)CCC(=O)Nc1nccs1)c1ccccc1F)NCC1CCCO1 (configuration not stated)
    -3.9	3.5%	27.1%	-3.8%
- CC1COC(=O)C(NNc2ccc(Cl)c(Cl)c2)=N1 (configuration not stated)
    2.0	1.6%	12.4%	-1.9%
- Cc1cccc(NC(=O)NNS(=O)(=O)c2ccc(F)cc2)c1
    -3.8	0.3%	-6.0%	-1.2%
- CCOc1cc(CNCCN(C)C)c(Cl)cc1OCC(=O)NCCc1ccccc1
    5.7	0.0%	2.5%	-5.8%
- Cc1ccc(-n2c(=O)[nH]cc(C(=O)Nc3ccc4c(c3)OCCO4)c2=O)cc1C
    1.7	-2.3%	-11.3%	-8.0%
- O=C(COC(=O)c1ccc(C(F)(F)F)cc1)NC(=O)NC1CCCC1
    x	-5.6%	21.3%	x
- O=C(c1cccnc1)N1CCN(Cc2ccc3ccccc3c2)CC1
    x	1.0%	-13.7%	5.8%
- CCOCCc1nnc(NC(=O)C(C)Oc2ccccc2)s1 (configuration not stated)
    2.6	u	u	4.3%
- Cc1ccc(C(=O)CSc2ncnc3sc4c(c23)CCC(C)C4)cc1 (configuration not stated)
    -0.5	2.4%	-6.0%	-12.9%

New compounds follow:
Second line of a record – GLA inh pH 4.5	Rango-impB inh	Rango dissoc inh	miR-21 FLuc
- COc1cc(-c2nc3ccccc3nc2-c2ccc(O)c(OC)c2)ccc1O
    x	-0.2%	-21.3%	17.0%
- Cc1nnc(NCc2ccco2)s1
    5.4	2.5%	-13.2%	-1.1%
- O=C(CN1CCN(Cc2ccc(Cl)cc2)C1=O)NCCCN1CCN(c2ccc(F)cc2)CC1
    13.3	2.2%	0.3%	27.7%
- COCCN(CC(=O)Nc1cccc(S(=O)(=O)N2CCCC2)c1)Cc1nc2ccccc2c(=O)[nH]1
    x	-0.3%	u	x
- Nc1ccccc1SCC(=O)Nc1ccc2c(c1)OCO2
    x	0.9%	-9.3%	-23.8%
- CC1CN(c2oc(COc3ccc(Cl)cc3Cl)nc2C#N)CC(C)O1 (configuration not stated)
    -1.8	-3.7%	-18.5%	-9.1%
